High-throughput results: PubChem, several laboratories
PABP FP inh: PABP-poly(A) binding inhibition. P11940. PABP-poly(A) RNA binding, fluorescence polarization. inhibition, % at 35 µM. 290,000 tested, 1% active;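 active means 50% or more with normal probe brightness, or confirmed in later tests; inconclusive means above 50% with abnormal brightness, or retests that disagree; inactive means below 50% or failed in later tests; about a fifth of its hits are not listed in these tables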;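 further: calls also rest on retests at 20 µM and on dose response follow-up; controls were probe without protein and protein plus probe with vehicle; some compounds called inactive have numbers as strong as hits; many hits fall short of the cut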
UUG fidelity: alters start codon recognition fidelity in yeast; AID 602363; activity score, % at 18.7 µM; 350,000 tested, 0.13% active; S. cerevisiae UUG-firefly luciferase reporter, luminescence/redox ratio;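 active means replicate mean at a twofold rise or more, about +100% in these data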;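 further: firefly luciferase made from a UUG start codon reports start codon fidelity; reporter light over untreated wells divided by growth signal over untreated wells; some hits fall short of that in this replicate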
Env fusion inh: inhibitors of HIV Env-mediated cell fusion. HeLa-JRFL Env/CEM21 cell fusion, luciferase. inhibition, % at 12.3 µM. 360,000 tested, 1.1% active;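 active means mean replicate inhibition score of at least 50 and every replicate individually at or above 50; inconclusive means only one of the two criteria met; inactive means mean below 50 and not all replicates reaching 50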;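 further: 0% = plate neutral controls and 100% = maraviroc near 300 nM; one replicate is shown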
CSC inhib: cancer stem cell inhibition | inhibition, % at 7.5 µM | 300,000 tested, 1.1% active | cancer stem cell-like cells viability, luminescence;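 active means mean at 75% or more and at least half the replicates too; inconclusive means mean and replicates disagree; tested in HMLE shEcad cells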;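 further: 0% = median of negative and 100% = median of positive control wells; the first replicate is given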
eIF4H FP inh: inhibitors of RNA binding by human eIF4H. Q15056. 290,000 tested, 0.94% active. eIF4H fluorescence polarization binding assay. inhibition, % at 35 µM;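 active means 50% or more with normal probe brightness, or confirmed in later tests; inconclusive means above 50% with abnormal brightness, or retests that disagree; inactive means below 50% or failed in later tests; about a fifth of its hits are not listed in these tables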;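 further: calls also rest on retests at 20 µM and on dose response follow-up; 0% = protein and probe with vehicle and 100% = probe without protein; strong numbers were not always called active; many hits fall short of the cut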
MT1-MMP act inh: MT1-MMP (human) activation inhibition; P50281; 360,000 tested, 0.061% active; AID 651647; HT1080 RFP-PRO-GFP cells, GFP/RFP ratio fluorescence, overnight; percent of plate control window, DMSO zero; GFP/RFP ratio change, % at 20 µM;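 active means GFP/RFP ratio change of at least 30% with cell ATP level not reduced by more than half and red fluorescence within 50% of control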; further: strong numbers were not always called active
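Material – HT1080 RFP-PRO-GFP cells · Control set – DMSO wells and RFP-L50D-GFP cells · Incubation – overnight cell settling, then overnight compound exposure, 37 °C, 5% CO2 · Compound dosing – single-point 20 µM compound, 1% DMSO · Read-out – GFP/RFP fluorescence ratio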
Rce1 inh: blocks yeast Ras-converting enzyme | Q03530 | yeast membranes, quenched prenylated peptide cleavage fluorescence | calls only | 290,000 tested, 0.27% active;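 active means fall in fluorescence gain of 50% or more versus controls, with final raw signal at or below 3038400; inconclusive means same 50% fall but final raw signal above 3038400; inactive means fall in fluorescence gain under 50%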;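 further: plate controls were neutral control wells for no effect and wells lacking membranes for full effect; tested at 10 µM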
Target sequence (Q03530 whole entry, looked up): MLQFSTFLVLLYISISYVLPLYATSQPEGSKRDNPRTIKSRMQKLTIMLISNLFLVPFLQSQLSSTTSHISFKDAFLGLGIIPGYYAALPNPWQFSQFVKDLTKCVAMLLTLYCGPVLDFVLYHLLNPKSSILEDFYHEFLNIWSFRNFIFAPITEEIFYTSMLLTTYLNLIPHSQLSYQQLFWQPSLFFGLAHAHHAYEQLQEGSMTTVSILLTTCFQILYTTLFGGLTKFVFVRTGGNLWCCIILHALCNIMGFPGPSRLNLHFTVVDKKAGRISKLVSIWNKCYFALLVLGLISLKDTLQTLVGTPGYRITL
eIF4H FP inh retest: also measured in eIF4H FP inh; calls as there; inhibition, %; compound at 20 µM; confirmation average;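 mean of two retest wells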
PABP FP inh retest: second read-out of PABP FP inh, no call of its own (marks repeat the call); inhibition, %; compound at 20 µM; confirmation repeats;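 mean of two retest wells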
MT1-MMP act inh RFP: recorded beside MT1-MMP act inh, whose call it bears; RFP signal change, %; measured here: RFP expression control read;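 0 = vehicle wells; hits needed this value within 50% of zero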
Starred values were filed as active, the others as inactive; i = inactive; ? = inconclusive; / = not tested or not shown.

SMILES	PABP FP inh	UUG fidelity	Env fusion inh	CSC inhib	eIF4H FP inh	MT1-MMP act inh	MT1-MMP act inh RFP	Rce1 inh	others
O[C@H]1CN(Cc2cccs2)[C@@H](c2ccc(Cl)cc2)C[C@@H]1n1cc(C2CC2)nn1	/	9	12	/	/	5	5	/
COCCCN(C(=O)c1cc(-c2ccco2)nc2ccccc12)c1c(N)n(Cc2ccccc2)c(=O)[nH]c1=O	/	-14	-3	3	/	/	/	i
COc1ccc(CCNC(=O)CC(NS(=O)(=O)c2ccc(NC(C)=O)cc2)C(C)C)cc1OC (centres undefined)	0	-9	/	/	-2	3	5	i
COc1ccc2c(CC(=O)Nc3ccc(OC)c(S(=O)(=O)N4CCOCC4)c3)coc2c1	-16	-2	4	-11	-4	2	-1	i
COc1ccc(CCC(=O)OCC(=O)Nc2sccc2C#N)cc1	/	-15	3	-15	/	-1	7	/
OCCNc1ncnc2c1ncn2Cc1ccccc1	-1	3	15	-2	-1	5	5	i
COc1ccc(CNS(=O)(=O)c2ccc(F)c(C(=O)Nc3ccc(OC)cc3)c2)cc1	-12	/	0	-8	-8	-1	-3	i
Cc1ccc(C(=O)NC(=S)Nc2ccccc2C(F)(F)F)c(C)c1	-11	-6	/	-5	-13	0	-2	i
CCOC(=O)C1CCN(S(=O)(=O)c2cccc(C(=O)Nc3ccccc3)c2)CC1	0	-8	7	-11	0	1	0	i
CCOC(=O)/C(O)=C(\C#N)c1nc2ccccc2[nH]1	8	/	-3	-1	8	-4	4	i
O=C(NN=Cc1ccc(F)c(F)c1)c1ccc(NS(=O)(=O)c2cccs2)cc1	/	/	2	8	/	3	1	/
CCOC(=O)c1ccccc1NC(=S)N1CCN(C2CCCCC2)CC1	-6	/	-5	-12	-6	4	2	i
CCOC(=O)c1sc(S(C)(=O)=O)c2c1CC(C)(C)C/C2=N/O	-4	0	-2	-2	-5	1	-1	i
O=C(NCCc1c[nH]c2ccccc12)N[C@@H](Cc1ccccc1)C(=O)O	15	-4	4	2	-4	0	6	i
O=C(NN1C(=O)/C(=C/c2ccc(O)cc2)SC1=S)c1ccccc1O	53*	-5	-13	15	63	-12	30	i	eIF4H FP inh retest=36;PABP FP inh retest=87*
CC(C)CCN1CCN(Cc2cccn2-c2cccnc2)CC1CCO (centres undefined)	5	-5	4	-10	10	0	1	i
CCn1cc(C(=O)N2CCN(c3ccc(C(C)=O)cc3)CC2)c2cc(OC)c(OC)cc2c1=O	-6	-1	26	13	-2	11	3	/
CC(O)Cn1cnc2c1c(=O)n(C)c(=O)n2C (centres undefined)	11	-5	6	2	-7	2	7	i
COc1ccc(C(C)(C)C)cc1S(=O)(=O)N1CCN(C)CC1	-2	-10	/	0	6	0	3	i
CCC1CCCCN1C(=O)COc1ccc(S(=O)(=O)N2CCOCC2)cc1Cl (centres undefined)	/	4	-5	-2	/	-3	0	/

The last 7 entries of the section above lead into the next:
SMILES	PABP FP inh	UUG fidelity	Env fusion inh	CSC inhib	eIF4H FP inh	MT1-MMP act inh	MT1-MMP act inh RFP	Rce1 inh	others
O=C(NCCc1c[nH]c2ccccc12)N[C@@H](Cc1ccccc1)C(=O)O	15	-4	4	2	-4	0	6	i
O=C(NN1C(=O)/C(=C/c2ccc(O)cc2)SC1=S)c1ccccc1O	53*	-5	-13	15	63	-12	30	i	eIF4H FP inh retest=36;PABP FP inh retest=87*
CC(C)CCN1CCN(Cc2cccn2-c2cccnc2)CC1CCO (centres undefined)	5	-5	4	-10	10	0	1	i
CCn1cc(C(=O)N2CCN(c3ccc(C(C)=O)cc3)CC2)c2cc(OC)c(OC)cc2c1=O	-6	-1	26	13	-2	11	3	/
CC(O)Cn1cnc2c1c(=O)n(C)c(=O)n2C (centres undefined)	11	-5	6	2	-7	2	7	i
COc1ccc(C(C)(C)C)cc1S(=O)(=O)N1CCN(C)CC1	-2	-10	/	0	6	0	3	i
CCC1CCCCN1C(=O)COc1ccc(S(=O)(=O)N2CCOCC2)cc1Cl (centres undefined)	/	4	-5	-2	/	-3	0	/
CCCCC(=O)OCC(=O)Nc1ccc(OC(F)F)cc1	-2	-11	/	17	-10	3	2	i
COc1nc(-c2cnccn2)sc1C	12	/	-11	-6	-22	-1	2	i
Cc1sc2nc(SCC(=O)c3cccs3)n(Cc3ccco3)c(=O)c2c1C	-1	-10	10	/	-16	9	-2	i
Cc1ccc(C(C)C)c(Oc2cnccn2)c1	-11	-5	8	-7	-1	0	7	i
CN=C(Nc1ccc(Cl)cc1)c1cccc(C(F)(F)F)c1	-10	1	-14	-19	-7	-7	-1	i
CCOc1cccc(CNCc2ccncc2)c1	-1	-11	-7	/	19	2	-1	i
CCCCCc1ccc(CC(=O)Nn2c(C)nc3ccccc3c2=O)cc1	-15	/	?	21	-7	13	-12	i
Cc1c(C(=O)OC(C)C(=O)N(C)Cc2ccccc2)oc2ccccc12 (centres undefined)	/	-7	0	7	/	0	-3	/
CCC(=O)NC(c1cccc([N+](=O)[O-])c1)c1c(O)ccc2ccccc12 (centres undefined)	10	/	4	5	1	-4	-6	i
OC(c1ccccc1)c1ncc(-c2cccc(F)c2)[nH]1 (centres undefined)	/	-21	5	/	/	2	5	/
O=C(c1ccc([N+](=O)[O-])cc1)N1CCN(c2ncccn2)CC1	/	1	-2	/	/	-7	3	i
COc1ccccc1NC(=O)N1CCC(c2nc3ccccc3o2)CC1	31	/	-26	-9	4	2	3	i
CCNc1nc(Oc2ccc(C(=O)OCC)cc2)nc(N2CCOCC2)n1	6	/	/	-2	6	/	/	i
Nn1c(SCc2ccccc2)nnc1-c1ccccn1	-2	-24	-98	-8	-7	2	6	i
COc1ccc(-n2nnnc2SCC(=O)Nc2cccc(NC(C)=O)c2)cc1OC	2	-17	/	6	8	5	1	i
COc1ccc(CN2CCNC(=O)C2CC(=O)NCc2ccc(C)s2)c(OC)c1 (centres undefined)	1	/	9	-6	-1	1	3	i
COc1ccc(/C=C/C(=O)NCC2COc3ccccc3O2)cc1OC (centres undefined)	4	/	2	0	1	4	3	i
CC(C)NC(=O)c1ccc(CONC(=O)OCc2ccccc2)cc1	/	-11	2	/	/	1	3	/
Cn1c(C(=O)N[C@@H](C(=O)O)c2ccccc2)cc2cc(F)ccc21	-6	/	6	-1	4	0	3	i
Cc1[nH]c2ccccc2c1/C=N/Nc1ccc([N+](=O)[O-])cc1	2	/	/	50	-6	-114	-7	i

An excerpt from above in order of number of heavy atoms, low to high:
SMILES	PABP FP inh	UUG fidelity	Env fusion inh	CSC inhib	eIF4H FP inh	MT1-MMP act inh	MT1-MMP act inh RFP	Rce1 inh	others
COc1ccc(C(C)(C)C)cc1S(=O)(=O)N1CCN(C)CC1	-2	-10	/	0	6	0	3	i
COc1ccc(CN2CCNC(=O)C2CC(=O)NCc2ccc(C)s2)c(OC)c1 (centres undefined)	1	/	9	-6	-1	1	3	i
COc1ccc(CNS(=O)(=O)c2ccc(F)c(C(=O)Nc3ccc(OC)cc3)c2)cc1	-12	/	0	-8	-8	-1	-3	i

Later entries.
SMILES	PABP FP inh	UUG fidelity	Env fusion inh	CSC inhib	eIF4H FP inh	MT1-MMP act inh	MT1-MMP act inh RFP	Rce1 inh	others
O=[N+]([O-])c1cnc2ccccc2c1	6	-15	21	-5	4	1	3	i
Cc1ccc(C2=NN(C(=O)CCC(=O)O)C(c3cn(-c4ccccc4)nc3-c3ccc(C)cc3)C2)cc1 (centres undefined)	-4	/	3	9	8	16	1	i
O=C(CN1CCCCCC1)NCc1ccccc1	-1	-4	-13	/	0	1	4	i
Cc1nnc(SCC(=O)N2CCCCCC2)n(N)c1=O	2	/	-6	6	-10	0	4	i
CC(C)C[C@H](NC(=O)c1nc[nH]c1C(=O)NCc1ccccc1)C(=O)OCc1ccccc1	9	-12	8	-5	11	22	4	i
O=C(Nc1ccc(N2CCCC2)c(Cl)c1)c1ccccc1[N+](=O)[O-]	4	/	-9	1	-4	-2	5	/
CC(C)C[C@H](NC(=O)c1[nH]cnc1C(=O)N[C@@H](C)C(=O)OC(C)(C)C)C(=O)OC(C)(C)C	5	23	1	-1	19	-10	-11	i
Cc1csc(SCC(=O)NCc2cccc(Cl)c2)n1	10	/	1	7	1	-7	-1	i
O=C1C=C(O)c2c(O)cccc2C1=O	23	/	/	1	14	/	/	/
Cc1cccc(-c2noc(-c3ccccc3C(=O)NCC3CCCO3)n2)c1 (centres undefined)	6	-1	/	-5	-4	2	2	i
CCN(CC)CCCN1C(=O)C(=O)/C(=C(/O)c2cc(C)ccc2C)C1c1cccnc1 (centres undefined)	12	-10	-2	0	-8	-3	1	i
COc1ccc(/C(N)=N/OC(=O)CC2CCCCC2)cc1OC	4	-7	-5	-3	-10	0	-4	i
COc1ccc(C(C)NC(=O)c2ccccc2Br)cc1OC (centres undefined)	12	-21	8	-14	-2	-2	2	i
O=C(CN1C(=O)NC2(CCCC2)C1=O)Nc1ccc(Cl)c(C(F)(F)F)c1	-2	-17	3	-1	-3	4	1	i
COc1ccc2c(C)c(CC(=O)N3CCN(C(=O)C4COc5ccccc5O4)CC3)c(=O)oc2c1 (centres undefined)	8	-9	2	-12	-10	2	-5	i
CSc1ccc(Cl)c(C(=O)OCC(=O)N2CCOCC2)c1	-3	-30	/	-7	-7	6	6	i
CCOc1ccc(-c2nnc(NC(=O)COc3ccccc3F)o2)cc1	/	-16	-8	/	/	-2	2	/
COCC1CCCCN1C(=O)c1ccc2oc(CCc3ccccc3)nc2c1 (centres undefined)	5	10	8	8	-3	-2	-5	i
CC(NC(=O)COC(=O)c1cc([N+](=O)[O-])ccc1N1CCOCC1)c1ccc(F)cc1 (centres undefined)	/	/	5	-6	/	3	-1	i
Cc1cccc(/C=C/c2onc(C)c2S(=O)(=O)N2CCC(C(=O)NC(C)C)CC2)c1	0	-14	-17	/	-2	-3	-6	i
C[C@@]12CCC=C[C@H]1[C@H](c1ccc(F)c(/C=C/c3ccccc3)c1)N(Cc1ccccc1)C2=O	-10	-4	26	94*	-10	-6	-9	i
c1ccc(CN2CCN(Cc3cn4cccnc4n3)CC2)cc1	6	/	1	/	6	3	3	i
